Screening results deposited in PubChem BioAssay by ICCB-Longwood Screening Facility, Harvard Medical School.
BasE inh – BasE siderophore enzyme inhibitors, primary screen, biochemical, Acinetobacter baumannii ATCC 17978, fluorescence polarization | 84,000 compounds, 0.1% hits | purified BasE, fluorescence polarization binding displacement | inhibition, % (no concentration beside the values);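 active = both replicates above 25% with normal brightness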;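 also: 0% = negative plate control signal and 100% = positive plate control signal; stock transfer was 100 nL into about 30 µL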
KSHV LANA nucl – inhibitors of KSHV LANA-nucleosome binding, primary screen, biochemical, fluorescence polarization, FITC-LANA1-23, chicken nucleosomes | FITC-LANA1-23 / chicken nucleosome fluorescence polarization; hits give low values | z-score (test concentration not listed) | 51,000 compounds, 0.3% hits;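 active = both repeat wells score below -2 in polarization z-score versus plate sample wells, excluding overly bright wells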;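 also: 100 nL library stock added to about 30 µL; numbers are from one replicate; some results filed as inactive read as strong as hits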
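Material: Purified chicken nucleosomes with FITC-labelled LANA N-terminal peptide (1-23) | Reagent: 50 nM FITC-LANA1-23 probe | Medium: TEN-BT buffer, pH 7.5 | Times: 10–45 min incubation at room temperature | Detection: Fluorescence polarization | Replication: Duplicates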
Active calls of the source: *; · = not tested or not shown; & = joins results of further samples.

SMILES	BasE inh	KSHV LANA nucl
CCN(CC)S(=O)(=O)c1ccc2oc(Sc3cc(C)c(C#N)c4nc5ccccc5n34)nc2c1	-0.1	·
CCOc1ccc(C(C)(C)C)cc1S(=O)(=O)n1c(C)nc2ccccc21	-1.7	-0.49
COc1ccc(N2CCN(C(CNS(=O)(=O)c3c(C)cc(C)cc3C)c3ccco3)CC2)cc1 (stereo unspecified)	-0.8	0.14
Cc1nnc(NC(=O)C(C)N2CCCC2)s1 (stereo unspecified)	-0.5	0.15
CN(Cc1cccs1)C(=O)Cc1c[nH]c2ccccc12	1.8	·
COc1cccc2cc(C(N)=O)/c(=N/NS(=O)(=O)c3ccc(C)cc3)oc12	1.3	-0.95
Cc1ccc(NC(=O)c2ccco2)nc1	-0.4	-0.67
CC1CCCCN1C(=O)c1ccccc1NC(=O)c1ccco1 (stereo unspecified)	0.5	0.78
CC(=O)Nc1ccc(SCC(=O)NC(=O)NC2CCCCC2)cc1	0.1	·
Cn1c(=O)c2c(nc3n2Cc2c(Cl)cccc2N3CCNC(=O)C2CCC2)n(C)c1=O	-4.1	2.4
CCCCCn1c(-c2ccccc2)nc2ccccc21	4.3	·
CN(CCc1ccccn1)c1ncnc2sccc12	-0.7	·
C=CC[N+]1(CC=C)CCOCC1	1.6	-0.95
Cc1nc(-c2ccc(S(=O)(=O)N3CCCN(CCc4ccccc4)CC3)s2)cs1	1.9	0.76
OCC1OC(Oc2ccc(O)cc2)C(O)C(O)C1O (stereo unspecified)	-1.8	-0.29
COc1cc(SC)ccc1C(=O)OCC(=O)N(C)C1(C#N)CCCCC1	3.0	·
COc1ccc(C=Nc2ccc(C(C)(C)C)cc2)cc1	2.1	·
CCNC(=O)C1CN(S(=O)(=O)c2ccccc2)CCN1S(=O)(=O)c1ccccc1 (stereo unspecified)	0.4	0.12
O=C(CC1SC(=NC2CC2)NC1=O)Nc1cc(C(F)(F)F)ccc1Cl (stereo unspecified)	0.9	·
S=C1C=C(N2CCCCC2)CC(c2ccc(Cl)cc2)S1 (stereo unspecified)	1.4	·
O=C1CN(C(=O)c2ccccc2)C(=O)CN1C(=O)c1ccccc1	0.8	0.43
CCc1cc(SC/C(O)=C(\C#N)c2nc3ccccc3[nH]2)n2c(nc3ccccc32)c1C#N	-3.5	·
O=C1CCCN1CCNC(=S)Nc1ccccc1	-0.7	·
CC1CCC(N2CCCC(CO)C2)CC1 (stereo unspecified)	4.5	-0.71
Cc1oc(CSCCSCc2cc(C(=O)O)c(C)o2)cc1C(=O)O	2.2	-0.51
CN1C(=O)S/C(=C/c2cccnc2)C1=O	·	-0.05
Cc1cccc2nc(-c3ccc(N(C)C)cc3)c(NCCC(C)C)n12	-0.2	0.15
O=C(NC(=S)N1CCN(Cc2ccccc2)CC1)C1CCCCC1	3.6	·
C=CCn1c(C)c2cc(Cl)c(Cl)cc2[n+]1C	-1.6	·
O=C(CN1CCN(c2ncnc3sc(-c4ccccc4)cc23)CC1)N1CCCC1	-0.1	·
Cc1ccc2c(c1)-c1c(cnn1CC(=O)Nc1ccc3c(C)cc(=O)oc3c1)CO2	0.9	0.3
Cc1nn(-c2ccccc2)c2c1C(c1cccnc1)C1=C(CC(C)(C)CC1=O)N2 (stereo unspecified)	2.0	·
COc1cccc(C=C2C(=O)N(C)C(=S)N(C)C2=O)c1OC	6.0	0.26
CCOc1ccc(Nc2nc3ccccc3nc2Nc2ccc(OCC)cc2)cc1	-7.3	-0.19
CCOC(=O)C1=C(C)N=C(SC)N(C(C)=O)C1c1ccccc1 (stereo unspecified)	1.1	·
CCCC1(CCC)NC(=O)N(Cn2nnc3ccccc3c2=O)C1=O	3.3	·
CCOC(=O)CN=C1NC(=O)C(c2ccccc2)(c2ccccc2)N1	2.2	-0.45
CC(Sc1nc2cc(Cl)ccc2c(=O)n1C1CCCCC1)C(=O)NC(N)=O (stereo unspecified)	-0.2	·
COc1ccc(CNC(=O)CSc2nc(C)cc(=O)[nH]2)cc1	0.1	·
C=CCOC(=O)C1=C(C)NC(SC)=C(C#N)C1c1ccccc1OC (stereo unspecified)	2.8	·
O=C(CN1C(=O)c2ccccc2S1(=O)=O)c1ccc2c(c1)OCCCO2	2.4	·
CSc1ccc(C=C2C(=O)OC3(CCCCC3)OC2=O)cc1	1.9	·
COC(=O)C1=C(C)N(Cc2cccnc2)C(=O)/C1=C\c1ccc(OC)cc1OC	1.3	0.11
Cc1ccc(CSc2n[nH]c(-c3ccccc3O)n2)cc1	1.6	0.31
COC(=O)CNC(=O)c1cc2cc(Cl)ccc2oc1=O	2.7	-1.6
O=C1N/C(=N/N=C\c2ccco2)SC1Cc1cccc(C(F)(F)F)c1 (stereo unspecified)	3.8	-0.44
CCN1C(=S)SC(=O)C1=C1C=C(C)OC(C)=C1	3.3	·
COCCn1c(-c2ccccc2)nc(=S)c2c1CCCC2	-1.3	2.3
CC(=O)OC1CCC(OC(C)=O)c2c1n([O-])c(C)c(C)[n+]2=O (stereo unspecified)	1.9	·
Cc1noc(C)c1C(=O)n1cc2c(n1)-c1cc(F)ccc1SC2	4.6	·
O=C1CC(CSc2nccc(-c3cccnc3)n2)=NN1c1ccc(Cl)cc1	-1.4	·
CCN(CC(=O)Nc1ccc(C#N)cc1)CC(=O)Nc1ccc2c(c1)OCCO2	1.1	·
CCOC(=O)N1CCC(N2C(=O)c3ccc(C(=O)Nc4ccc(OC)cc4)cc3C2=O)CC1	-0.1	-0.061
COCSC1=NC(c2ccc(SC)cc2)C(C(=O)OC(C)C)=C(C)N1 (stereo unspecified)	3.6	·
O=C(Nc1ccccc1)c1ccc2c(c1)OCCO2	-3.3	-0.72
O=C(CN1CCN(Cc2ccc3c(c2)OCO3)CC1)N1c2ccccc2CCc2ccccc21	-0.3	-0.23
O=C(CSCCCn1c(=O)[nH]c2ccccc21)N1CCc2ccccc21	-1.6	·
Cn1ccnc1C(=O)c1cc(=S)[nH]c2ccccc12	2.1	·
CC(C(=O)Nc1ccc(C#N)cc1)N1CCN(c2ccc(O)cc2)CC1 (stereo unspecified)	1.9	·
Cc1ccc(S(=O)(=O)N(C)C(F)F)cc1	-0.8	-1.2
Other results:
SMILES	BasE inh	KSHV LANA nucl
CC1CC(C)(C)NC(=S)N1CC(=O)N1CCN(Cc2ccccc2)CC1 (stereo unspecified)	1.7	-0.68
C#CCOC(=O)Nc1c(-c2ccccc2)noc1C	3.5	0.24
Cc1nc2nc(NC(=O)C(c3ccccc3)c3ccccc3)[nH]n2c(=O)c1C	5.7	3.4
CCOC(=O)N1CCC(N/C=C(\C#N)S(=O)(=O)c2cccnc2)CC1	1.0	·
Cc1ccc2nc(-c3ccccn3)cc(C(=O)NCc3cnn(C)c3)c2c1	3.1	-0.4
c1ccc(-c2cc(NC3CCCC3)n3cnnc3n2)cc1	-1.5	-0.38
CC1CCCCN1C(=O)CSc1nnc(-c2ccccc2)n1-c1ccccc1 (stereo unspecified)	1.6	·
Cc1ccc2c(n1)sc1c(=O)n(CCc3ccccc3)nnc12	0.6	0.37
O=C(N/C=C/c1ccsc1)Nc1cc(C(F)(F)F)cc(C(F)(F)F)c1	-1.7	·
O=C(NC1CCN(Cc2ccccc2)CC1)c1cncc(Br)c1	1.1	·
c1ccc(-n2nnnc2NCC2CCCCC2)cc1	-0.6	·
Cc1nn(Cc2ccccc2Cl)c(C)c1CN(C)Cc1cc(=O)n2c3c(sc2n1)CCCC3	-1.3	·
Cc1csc2nc(CSc3ccc(S(=O)(=O)N4CCOCC4)cn3)cc(=O)n12	-0.1	·
CN(Cc1ccco1)C(=O)c1ccc(N2CCCS2(=O)=O)cc1	-0.1	·
CC1Cc2ccccc2N1c1ccc2ccccc2n1 (stereo unspecified)	-1.6	·
Cn1ccnc1C(=O)c1cccc(S(=O)(=O)N2CCCc3ccccc32)c1	1.1	·
Cc1ccc(Cl)cc1N1CCN(C(=O)Cn2ncc3c(=O)oc4ccccc4c32)CC1	1.2	-0.33
C#CCNC(=O)c1cc(=O)[nH]c2ccccc12	0.2	·
CC(Sc1nnc(CN2CCCC2)n1Cc1ccccc1)C(=O)c1ccc(NS(C)(=O)=O)cc1 (stereo unspecified)	-3.3	·
O=C(Nc1ccc(N2CCOCC2)c2nonc12)c1cccs1	0.7	2.4
CCc1cc2c(cc3c(=O)n(CC(=O)NCCN4CCOCC4)ncn32)s1	-4.1	-0.71
CC(C)CC(=O)Nc1c(C(=O)Nc2cccc(F)c2)oc2ccccc12	-1.3	3.4
O=C(O)C1CCN(C(=O)CSc2ncnc3ccccc23)CC1	-0.1	·
CCN(CC)c1nc2n(c(=S)n1)CCS2	-3.2	1.3
CC1(C)C(=O)NCCN1C(=O)CSc1nccc(-c2ccccc2)n1	-1.1	-0.87
CCOC(=O)N1CCC(NC(c2ccc(F)cc2)c2nnc(-c3ccccc3)o2)CC1 (stereo unspecified)	0.6	-0.31
O=C(CN(CCc1ccc2c(c1)OCCO2)CC(=O)NC1CC1)NC1CC1	-1.9	·
CCN1CCN(Cc2cc(Cl)c3cccnc3c2O)CC1	-1.0	·
N#Cc1c(F)cccc1N1CCC(C(N)=O)CC1	-1.8	-0.17
NNC(=S)Nc1ccccc1	0.1	·
CCC(=O)Nc1ccccc1C(=O)N1CCCCC1	2.6	-0.89
Fc1ccc(Nc2nc3nonc3nc2Nc2ccccc2F)cc1	1.8	-0.26
OC[C@H]1O[C@H](O[C@]2(CCl)O[C@H](CCl)[C@@H](O)[C@@H]2O)[C@H](O)[C@@H](O)[C@H]1Cl	·	-0.42
O=C1CN(Cc2ccccc2)CC(=O)N1	1.9	-0.048
CN(Cc1ccccc1)C(=O)C1CCCN(c2ncnc3onc(-c4ccc(F)cc4)c23)C1 (stereo unspecified)	-0.4	·
CC1(C)CC(=O)C(C2C3=C(CC(C)(C)CC3=O)Oc3ccc(Br)cc32)=C(O)C1 (stereo unspecified)	2.5	·
CC(Oc1ccc(Cl)cc1)C(=O)NCc1ccco1 (stereo unspecified)	-3.6	2.5
O=S(=O)(CCN1CCN(S(=O)(=O)c2ccccc2C(F)(F)F)CC1)c1ccc(Br)cc1	1.8	·
CC1Cc2ccccc2N1C(=O)Cn1c(=O)oc2cc(S(=O)(=O)N3CCCC3)ccc21 (stereo unspecified)	-2.4	-0.097
CC(Sc1nnc(-c2ccc(F)cc2)n1Cc1ccccc1)C(=O)NCc1ccco1 (stereo unspecified)	2.9	·
CC1S/C(=N\N=C2CCC(C(C)(C)C)CC2)NC1=O (stereo unspecified)	-0.6	-0.012
CCOC(=O)N1CCN(Cn2nc(COc3ccc(C4CCCCC4)cc3)n(C)c2=S)CC1	3.2	0.6
COc1ccc(-c2csc(CC#N)n2)cc1OC	-1.8	·
CSc1nc2ccc(NC(=O)c3c(C)nn(-c4ccccc4)c3Cl)cc2s1	0.1	·
Cn1c(=O)[nH]c(=O)c2c(C(F)(F)F)cc(-c3ccco3)nc21	-0.7	·
N#Cc1cc(C#N)c(SCC(N)=O)nc1N	0.1	-0.19
CCCCCn1c(=O)[nH]c2cc(C(=O)NCCCC)ccc2c1=O	1.2	0.14
O=C(COc1ccc(Cl)cc1)OC1CCOC1=O (stereo unspecified)	0.5	·
Cc1ccc(CN2C(=O)N/C(=C/c3ccc4c(c3)n(C)c(=O)n4C)C2=O)cc1	1.8	-1.3
COc1cc2c(cc1OC)CN(CC(=O)NC(=O)NCc1ccccc1)CC2	-0.8	·
O=C(O)c1ccccc1S(=O)(=O)NCC(O)COC1CCCCC1 (stereo unspecified)	0.4	-0.0065
Cc1cc(C(=O)COC(=O)Cc2coc3cc(O)ccc23)c(C)n1C	4.2	·
O=C(COc1ncnc2sccc12)c1ccc(Cl)s1	-1.8	·
CC(CCc1ccccc1)NCC(O)c1ccc(O)c(C(N)=O)c1 (stereo unspecified)	-2.9&-3.3	-0.53&-0.35&-0.21
NNC(=O)c1cc(COc2cc(Cl)cc(Cl)c2)on1	-4.2	0.78
NCCCc1nc2cc3ccccc3cc2[nH]1	-3.0	·

Grouped by structure, the entries above containing two or more sulfur atoms.
SMILES	BasE inh	KSHV LANA nucl
CCN(CC)S(=O)(=O)c1ccc2oc(Sc3cc(C)c(C#N)c4nc5ccccc5n34)nc2c1	-0.1	·
Cc1nc(-c2ccc(S(=O)(=O)N3CCCN(CCc4ccccc4)CC3)s2)cs1	1.9	0.76
CCNC(=O)C1CN(S(=O)(=O)c2ccccc2)CCN1S(=O)(=O)c1ccccc1 (stereo unspecified)	0.4	0.12
S=C1C=C(N2CCCCC2)CC(c2ccc(Cl)cc2)S1 (stereo unspecified)	1.4	·
Cc1oc(CSCCSCc2cc(C(=O)O)c(C)o2)cc1C(=O)O	2.2	-0.51
CCN1C(=S)SC(=O)C1=C1C=C(C)OC(C)=C1	3.3	·
COCSC1=NC(c2ccc(SC)cc2)C(C(=O)OC(C)C)=C(C)N1 (stereo unspecified)	3.6	·
Cc1csc2nc(CSc3ccc(S(=O)(=O)N4CCOCC4)cn3)cc(=O)n12	-0.1	·
CC(Sc1nnc(CN2CCCC2)n1Cc1ccccc1)C(=O)c1ccc(NS(C)(=O)=O)cc1 (stereo unspecified)	-3.3	·
CCN(CC)c1nc2n(c(=S)n1)CCS2	-3.2	1.3
O=S(=O)(CCN1CCN(S(=O)(=O)c2ccccc2C(F)(F)F)CC1)c1ccc(Br)cc1	1.8	·
CSc1nc2ccc(NC(=O)c3c(C)nn(-c4ccccc4)c3Cl)cc2s1	0.1	·
O=C(COc1ncnc2sccc12)c1ccc(Cl)s1	-1.8	·

Not all compounds are listed; count on the stated rates, not on these rows.
